Cruzain inh Det – blocks cruzain activity in presence of Triton detergent; P25779; purified cruzain, Z-FR-AMC fluorescence, 0.01% Triton; Potency, µM, without a hit: max response, negative = inhibition, hits mostly inhibitors; 200,000 compounds, 0.43% hits; active = well fitted curve in the direction sought with a large enough effect; inconclusive = small, poorly fitted or top-dose-only effect, or another doubt; inactive = no such curve, though single readings can be large; an effect the other way counts as inactive or inconclusive;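 also: plate controls were neutral wells for no effect and buffer without enzyme for full effect; nearly all actives have a fitted effect of over 40% in size; top concentration of the series not given in the record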
Target sequence (P25779 123-467 limits assumed): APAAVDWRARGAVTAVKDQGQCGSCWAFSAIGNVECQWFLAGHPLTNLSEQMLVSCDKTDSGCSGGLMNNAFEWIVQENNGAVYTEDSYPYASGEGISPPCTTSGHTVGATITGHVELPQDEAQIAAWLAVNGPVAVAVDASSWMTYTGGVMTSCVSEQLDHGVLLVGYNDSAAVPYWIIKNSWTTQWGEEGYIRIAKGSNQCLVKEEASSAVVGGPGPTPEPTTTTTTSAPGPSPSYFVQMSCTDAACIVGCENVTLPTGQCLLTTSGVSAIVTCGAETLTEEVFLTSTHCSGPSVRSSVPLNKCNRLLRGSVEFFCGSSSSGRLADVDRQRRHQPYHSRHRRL
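Sodium acetate buffer (100 mM, pH 5.5) containing 5 mM DTT and 0.01% Triton X-100 hosted 1.5 nM cruzain and test compound for 15 min at room temperature. Cleavage of 2 uM Z-FR-AMC was then tracked by fluorescence.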
MARV entry inh – Marburg virus entry inhibition | AID 540276 | Potency, µM (highest dose often 37.8 µM), for the others: at the highest dose activity change, negative = inhibition, most hits filed as inhibitors | 300,000 compounds, 1.8% hits | Marburg virus pseudotyped entry inhibition, cell reporter; control for the full effect not named in the record; about a third of the inactives were read at about 46 µM; active = well fitted inhibition curve with a large enough effect; inconclusive = small, poorly fitted or top-dose-only effect, or effect the other way; inactive = flat fitted curve, though single readings scatter; tested in HEK293 cells; about a fifth of its hits are not listed in these tables; also: % is scaled to controls: 0 for no effect and ±100 for the full control effect; luciferase read-out
2A StopGo – FMDV 2A StopGo reporter, luciferase signal. human cells with a luciferase reporter of 2A StopGo recoding; control for the full effect not named in the record. Potency, µM (highest dose often 57.9 µM), for the others: top-dose signal change, negative = less light. 410,000 compounds, 1.2% hits. AID 1159524; active = well fitted falling curve with a large enough effect; inconclusive = small, poorly fitted or top-dose-only effect; inactive = no such curve, though single readings can be large or run the other way; tested in HEK293T cells; also: % is scaled to controls: 0 for no effect and ±100 for the full control effect; nearly all actives have a fitted effect of over 45% in size; luciferase light after 4 h
NS1 inh – inhibitors of influenza NS1 protein function | AID 2326 | Potency, µM (highest dose often 46.1 µM), for inactives: top-dose activity, positive = more growth | S. cerevisiae slowed by influenza A NS1, growth recovery by OD600 | 270,000 compounds, 0.4% hits; also: actives are rising curves; nearly all actives have a fitted effect of over 50% in size
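Growth recovery, yeast-based: influenza A NS1 expressed in S. cerevisiae causes slow growth, and suppressors are detected by OD600. The parent strain without NS1 is used as positive control.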
Lassa entry inh – Lassa virus entry inhibition. 300,000 compounds, 1.2% hits. Lassa virus pseudotype entry inhibition, cell reporter; control for the full effect not named in the record. Potency, µM (highest dose often 37.9 µM), for the others: at the highest dose activity change, negative = inhibition, actives largely listed as inhibitors; active means well fitted inhibition curve with a large enough effect; inconclusive means small, poorly fitted or top-dose-only effect, or effect the other way; inactive means flat fitted curve, though single readings scatter; tested in HEK293 cells; also: % is scaled to controls: 0 for no effect and ±100 for the full control effect; nearly all actives have a fitted effect of over 50% in size; luciferase read-out
SARS PLP yeast – blocks SARS-CoV papain-like protease in a yeast assay | S. cerevisiae expressing SARS-CoV PLpro, growth rescue; control for the full effect not named in the record | Potency, µM (top dose mostly 32.9 µM), without a hit: top-dose activity, positive = growth rescue | 330,000 compounds, 0.19% hits; also: 0% is about no effect; nearly all actives have a fitted effect of over 55% in size; growth read by luminescence after 48 h
Cruzain inh noDet – cruzain (T. cruzi) inhibition without detergent; Potency, µM, without a hit: max response, negative = inhibition, usual class: inhibitors; purified cruzain, Z-FR-AMC fluorescence, no detergent; P25779; 200,000 compounds, 2.3% hits; active = well fitted curve in the direction sought with a large enough effect; inconclusive = small, poorly fitted or top-dose-only effect, or another doubt; inactive = no such curve, though single readings can be large; an effect the other way counts as inactive or inconclusive;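 also: plate controls were enzyme without inhibitor for no effect and buffer without enzyme for full effect; nearly all actives have a fitted effect of over 40% in size; top concentration of the series not given in the record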
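Detergent-free condition (0.00005% Triton X-100) in acetate buffer pH 5.5 with DTT. 1.5 nM enzyme and compound were pre-mixed 15 min, then 2 uM Z-FR-AMC substrate added; reaction progress from fluorescence change between first and third reads (60 s).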
RE007 growth inh – less growth of the S. pombe RE007 Vpr strain | S. pombe RE007 Vpr strain, BacTiter-Glo ATP luminescence, 24 h; control for the full effect not named in the record | Potency, µM (titrated, usually from 92.2 µM), without a hit: at the highest dose activity change, negative = less growth | 360,000 compounds, 0.21% hits; active = well fitted falling curve with a large enough effect; inconclusive = small, poorly fitted or top-dose-only effect; inactive = no such curve, though single readings can be large or run the other way;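 also: % is scaled to controls: 0 for no effect and ±100 for the full control effect; nearly all actives have a fitted effect of over 50% in size; the assay follows cell death caused by Vpr and the record does not say whether a fall means rescue or toxicity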
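Fission yeast strain RE007, carrying one chromosomally integrated HIV-1 vpr copy, was seeded at OD 0.01 in PMG+AL medium with 23 nL pinned compound. After 24 h at 30 °C and 99% humidity, viability was read by BacTiter-Glo luminescence.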
* hit, by the source's call; ? = inconclusive; nt = no result given; & = joins results of further samples; [ ] = another dose, or the depositor's remark. Unless noted, calls follow the shape of the dose curve; as a rule, active means well fitted rising curve with a large enough effect; inconclusive means small, poorly fitted or top-dose-only effect; inactive means no such curve, though single readings can be large or run the other way. Potency is read from the fitted curve at half-maximal effect.

SMILES	Cruzain inh Det	MARV entry inh	2A StopGo	NS1 inh	Lassa entry inh	SARS PLP yeast	Cruzain inh noDet	RE007 growth inh
C=CCn1c(C)nc2c(cnn2-c2ccccc2)c1=O	nt	-2%[46.1 µM]	4%	-4%	13%[46.1 µM]	?	nt	11%
O=C(OCC(=O)N1CCCCC1)c1cccc(NS(=O)(=O)c2ccccc2)c1	nt	0%	22%	nt	4%[46.1 µM]	3%	nt	2%
CCc1ccc(C(=O)N2CCCN(C)CC2)s1	nt	4%	1%	16%	20%	5%	nt	18%
NNC(=O)C1=NOC2COC3(CCN(c4ncccn4)CC3)OCC12 (stereo not given)	nt	1%	-14%	-1%	?	1%	nt	-1%
Cc1ccc(CNC(=O)C2CCN(S(=O)(=O)c3cn(C)cn3)CC2)cc1	2.0%	nt	4%	nt	-7%[46.1 µM]	nt	-6%	nt
CCOC(=O)c1ccccc1NC(=O)/C=C/C(=O)O	-0.2%	?	-23%	-1%	0%	?	8%	-19%
CCCNc1nc(N)nc(-c2cc(Cl)ccc2OC)n1	2.3%	-4%	-21%	6%	2%	?	3%	-10%
Cc1ccc(-n2ncc3c(=O)n(CC(=O)NC4CCCCC4)cnc32)cc1C	4.8%	19%&3%	nt	3%	-10%	5%	-4%	-6%
Cc1cc(C(=O)COC(=O)CC(NC(N)=O)c2ccc(Cl)cc2)c(C)n1C (stereo not given)	nt	-1%	-21%	nt	1%	-2%	nt	13%
CC(=O)c1c(O)cc2n(c1=O)-c1ccc(Cl)cc1C2(C)C	-3.5%	4%	-8%	19%	-5%	-18%	-13%	-19%
c1ccc(Cn2nnc(-c3ccccc3)n2)cc1	-4.0%	2%	81%[activator]	-1%	?	8%	-13%	-25%
C=CCN1C(=O)/C(=C\c2ccc(C)cc2)N=C1SCC(=O)NCCC	9.7%	6%	-19%	6%	8%	6%	-30%	3%
Cc1cc2cc(C(c3nnnn3Cc3ccccc3)N3CCc4ccccc43)c(=O)[nH]c2cc1C (stereo not given)	-4.3%	?	-8%	21%	-20%	-2%	?	-3%
CCOc1ccc(CCNc2ccc3nnc(-c4ccccc4)n3n2)cc1OCC	1.6%	27%	-11%	11%	-2%	3%	14%	-1%
CCOc1ccccc1NC(=O)c1ccc(C(=O)Nc2ccccc2OCC)nc1	nt	nt	3%	?	nt	-5%	nt	1%
COCCCN1CN=C(Nc2nc3ccccc3o2)NC1	nt	1%	70%[activator]	nt	15%	0%	nt	6%
O=C1CSc2cc(Cl)ccc2N1	nt	0%[46.1 µM]	-5%	nt	0%[46.1 µM]	nt	nt	-14%
COc1ccc2c(c1OC)C(=O)N1c3ccccc3COC21 (stereo not given)	-4.1%	?	21%	-46%	-22%	5%	7%	-20%
CC(Cl)C(=O)NN=C(c1ccccc1)c1ccccc1 (stereo not given)	nt	nt	-15%	5%	nt	0%	nt	1%
CCCC12CN3CC(C)(CN(C1)C3c1cccs1)C2=O (stereo not given)	nt	-5%	-10%	0%	-1%	-2%	nt	-6%
O=C(Cc1ccccc1)Nc1ccc(N2CCOCC2)cc1	nt	?	36%[activator]	4%	-27%[46.1 µM]	0%	nt	-10%
CCOCCCNC(=O)/C(C#N)=C/c1cc(C)c(O)c(C)c1	nt	nt	16%	-3%	nt	-2%	nt	-10%
CCOc1ccc(S(=O)(=O)NCC(c2ccc(N(C)C)cc2)N2CCCC2)cc1 (stereo not given)	-4.0%	nt	-13%	nt	-2%[46.1 µM]	nt	11%	nt
O=C(Nn1c(-c2ccncc2)nc2ccccc2c1=O)c1ccc(Br)cc1	nt	-2%[46.1 µM]	-21%	nt	-17%	-15%	nt	1%
O=c1[nH]c(=O)n(Cc2ccc(F)cc2)c(O)c1C=Nc1ccc(Cl)cc1	nt	8%[46.1 µM]	9%	nt	-30%	0%	nt	8%
COc1ccc(NC(=S)NNc2ccc(S(=O)(=O)Nc3ccccc3C(=O)O)cc2[N+](=O)[O-])cc1	nt	nt	?	?	nt	-1%	nt	-7%
CC(C)Cc1nnc(NS(=O)(=O)c2ccc(Cl)cc2)s1	-2.3%	20%	31%[activator]	-25%	3%	-8%	-5%	5%
COCC(=O)Nc1cccc(-c2nc3cccnc3s2)c1	-2.7%	2%[46.1 µM]	-13%	nt	6%[46.1 µM]	nt	-11%	nt
COc1ccc(Nc2ncccc2C(=O)NCc2ccccc2)cc1	-7.8%	13%	22%	-13%	-19%	-2%	5%	3%
CCOC(=O)c1[nH]c2ccccc2c1NC(=O)c1ccc(C)c(C)c1	-5.5%	?	-18%	nt	21%[46.1 µM]	nt	-1%	nt
COC(=O)CSc1nnc(CNC(=O)c2ccc(S(=O)(=O)N3CCCCC3)cc2)n1C	3.0%	2%	18%	-4%	19%	4%	7%	-5%
CCC(=O)N1CCc2cc(Br)cc(S(=O)(=O)N3CCC(C(=O)NCCCOC(C)C)CC3)c21	4.1%	?	-11%&-15%	-10%	9%&3%[46.1 µM]	11%	?	13%
Cc1cc(C)c(NC(=O)C2CCCN(C(=O)c3cnn(-c4ccccc4)c3-n3cccc3)C2)c(C)c1 (stereo not given)	-2.3%	-18%[46.1 µM]	0%	nt	-3%[46.1 µM]	nt	?	nt
COc1cccc2c1NC(C(=O)O)C1CC=CC21 (stereo not given)	-7.3%	1%&1%	-9%	4%	?	1%	9%	6%
Cc1cccc2cc(CN(Cc3cccnc3)C(=S)NCCCN(C)C)c(=O)[nH]c12	nt	2%[46.1 µM]	-16%	-7%	14%	0%	nt	2%
Cc1cc(C)n2nc(/C(C#N)=C/c3ccccc3)c(C#N)c2n1	1.6%	-2%	13%	9%	5%	2%	-1%	-10%
CCN(CC(=O)Nc1c(F)cccc1F)C(=O)CCOc1ccc(C)cc1	nt	0%	7%	nt	-18%	-9%	nt	2%
O=S1(=O)CC(O)C(N2CCCCC2)C1 (stereo not given)	2.0%	-26%	-9%	-4%	19%	3%	-6%	-6%
COC(=O)c1cc(C(=O)OCC(=O)c2ccc3c(c2)NC(=O)CO3)cc([N+](=O)[O-])c1	nt	-4%	?	nt	3%	-1%	nt	-11%
COCCCN1C(=O)C(=O)/C(=C(/O)c2ccccc2)C1c1ccc2c(c1)OCO2 (stereo not given)	-1.1%	26%	nt	-4%	-6%	-5%	-2%	3%
COc1ccccc1C(c1nnnn1Cc1ccccc1)N1CCC(C(N)=O)CC1 (stereo not given)	-1.1%	?	50%[activator]	-5%	-11%	32%	1%	3%
Cc1ccc(Nc2ccccc2N)cc1	nt	-5%	6%	-9%	4%	-3%	nt	-20%
CC(C)c1ccc(CNCCSc2nnnn2-c2ccccc2)cc1	2.3%	25%[46.1 µM]	0%	nt	-20%[46.1 µM]	nt	13%	nt
CN1/C(=c2/s/c(=C3/C(=O)N(c4ccccc4)NC3=Nc3ccccc3)n(C)c2=O)C(C)(C)c2ccccc21	-16%	-23%&-23%	-22%	-8%	0%	-13%	2%	1%
Cc1c(C(=O)NCCC2=CCCCC2)oc2ccc(S(=O)(=O)N3CCOCC3)cc12	-2.6%	?	14µM*	-10%	8.2µM*	-3%	?	0%
Cc1cc(-c2ccc(/C=N/n3cnnc3)o2)c([N+](=O)[O-])cc1C	-14%	-7%	-27%	9%	-1%	-10%	-5%	-2%
C=CCSC1=C(C#N)C(c2ccc(C(C)C)cc2)CC(=O)N1 (stereo not given)	-8.6%	nt	?	-9%	nt	-14%	-5%	-22%
Cc1noc(NS(=O)(=O)c2ccc(NC(=O)C34CCC(CC3)C4)cc2)c1C	2.9%	0%	nt	-6%	12%	4%	-4%	5%
CCOC(=O)C1CCCN(C(=O)c2cc(Cl)ccc2NC(=O)C2=C(C)OCCS2)C1 (stereo not given)	nt	nt	-13%	-1%	nt	0%	nt	7%
COc1ccc(N2CCN(CC(=O)Nc3ccc(SC(F)F)cc3)CC2)cc1	-9.3%	nt	5%	-16%	nt	-8%	7%	1%
Cc1ccccc1-n1ncc2c1CC(C)(C)CC2NC(=O)CCN1Cc2ccccc2C1=O (stereo not given)	nt	-14%[46.1 µM]	2%	-8%	?	-1%	nt	-8%
O=c1[nH]c2nc(Br)[nH]c(=O)c2[nH]1	nt	-17%[46.1 µM]	2%	nt	-3%[46.1 µM]	nt	nt	17%
CCCCNC(=O)N(O)C1N(CCCC)C(=O)N(CC(=O)OC)C1(C)C (stereo not given)	0.7%	21%	nt	0%	10%	-23%	0%	-16%
CCCCOc1ccc(-c2nnc(N)s2)cc1	-0.6%	-6%&-6%	12%	0%	8%	-58%	3%	-7%
CCOc1cccc(/C(O)=C2/C(=O)C(=O)N(CCOC)C2c2ccc(C)o2)c1 (stereo not given)	-7.2%	5%	-9%	3%	15%	-27%	-3%	3%
Cc1nnc(SCC(=O)N2CCCCC2)s1	-0.7%	3%	39%[activator]	4%	30%	4%	-3%	-14%
CN(C)/C=C/C(=O)c1ccc(Cl)s1	nt	0%[46.1 µM]	13%	-38%	2%[46.1 µM]	-4%	nt	3%
CC(C)OCCCNC(=O)C(NC(=O)c1ccc(Cl)cc1)C(C)C (stereo not given)	nt	-1%[46.1 µM]	-9%	nt	-11%	3%	nt	-4%
Cc1cccc(Nc2nc(-c3ccccc3)c(C(=O)Nc3cccnc3)s2)c1	-13%	?	0%	4%	?	-4%	-1%	-3%
CC1=NN(c2ccccc2)C(=O)C1C=Nc1ccccc1O (stereo not given)	nt	?	0%	-34%	?	-3%	nt	-2%
COc1ccc(CNc2nc3nc(C)c(Cl)c(=O)n3[nH]2)cc1OC	0.6%	-16%	-16%	1%	2%	-4%	-7%	-4%
COc1ccccc1Nc1nc(-c2cccc([N+](=O)[O-])c2)nc2ccccc12	-0.3%	22%	-9%	-23%	17%	7%	-24%	4%

Screens as filed in PubChem BioAssay.
